A1 apoptosis 2 – compounds inhibiting A1, read as caspase activation; MEF A1-2A-BIM cells, caspase-Glo luminescence, 3 h; percent of clofoctol response, DMSO zero; caspase activation, % (no concentration beside the values); 24,000 tested, under 10 active; in the data active = caspase activation above about 5.9%;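 also: wells of about 30 µL received 50 nL stock; the first replicate is given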
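System: mouse embryonic fibroblasts co-expressing A1 and BIM (A1-2A-BIM), primed for A1 dependence; amount: 2500 cells/well; doses: 50 nL pinned compound; schedule: cells settled overnight, compound exposure 3 h at 37 °C, 5% CO2; detection: Caspase-Glo 3/7 luminescence, 1 h at room temperature; read-out: Caspase-3/7 activation, seen as rise in luminescence signal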
The depositor's hits bear a star. The list is partial (hit frequency here may not be typical).

| no. | molecule | A1 apoptosis 2 |
| --- | --- | --- |
| 1 | CC(C)NC(=O)Nc1ccc2c(c1)C(=O)N([C@H](C)CO)C[C@@H](C)[C@H](CN(C)S(=O)(=O)c1ccccc1)OCCCC[C@@H](C)O2 | -0.1 |
| 2 | COc1ccc(CN(C)C[C@H]2Oc3c(NC(=O)C4CCOCC4)cccc3C(=O)N([C@H](C)CO)C[C@@H]2C)cc1 | -1.1 |
| 3 | C[C@@H]1CN([C@@H](C)CO)C(=O)c2cc(NS(=O)(=O)c3ccccc3)ccc2O[C@@H](C)CCCCO[C@@H]1CN(C)C(=O)Nc1ccccc1 | -1.2 |
| 4 | C[C@H]1CN([C@@H](C)CO)C(=O)c2cccc(NS(=O)(=O)c3cn(C)cn3)c2O[C@H]1CN(C)C(=O)Nc1ccccc1 | -0.2 |
| 5 | C[C@@H]1CN([C@H](C)CO)C(=O)Cc2cc(NS(=O)(=O)c3ccccc3)ccc2O[C@H]1CN(C)CC1CC1 | -1.4 |
| 6 | C[C@@H]1CN([C@@H](C)CO)C(=O)c2cc(N(C)C)ccc2O[C@H]1CN(C)S(=O)(=O)c1ccc(Cl)cc1 | -0.2 |
| 7 | C[C@@H]1CN([C@@H](C)CO)C(=O)Cc2cc(NC(=O)C3CC3)ccc2O[C@@H]1CN(C)Cc1ccc(Oc2ccccc2)cc1 | -0.7 |
| 8 | C[C@@H]1CN([C@@H](C)CO)C(=O)c2cc(NC(=O)c3ccncc3)ccc2O[C@@H](C)CCCCO[C@H]1CN(C)C | 1.1 |
| 9 | O=C(CCCCCCC(=O)Nc1ccccc1O)N/N=C/c1ccc[nH]1 | 0.4 |
| 10 | C[C@@H]1CN([C@@H](C)CO)C(=O)CCCn2cc(nn2)CO[C@H]1CN(C)S(C)(=O)=O | -0.7 |
| 11 | C[C@H]1CN([C@@H](C)CO)C(=O)c2cccc(NC(=O)c3nc4ccccc4s3)c2O[C@H]1CN(C)Cc1ccc(Oc2ccccc2)cc1 | -0.3 |
| 12 | CNC[C@@H]1Oc2ccc(NS(=O)(=O)c3c(C)noc3C)cc2CC(=O)N([C@@H](C)CO)C[C@@H]1C | -0.5 |
| 13 | C[C@H](CO)N1C[C@H](C)[C@@H](CN(C)Cc2ccc3c(c2)OCO3)Oc2ccc(NS(=O)(=O)c3cn(C)cn3)cc2CC1=O | 2.0 |
| 14 | C[C@@H]1CN([C@H](C)CO)C(=O)c2cccc(NC(=O)c3ccc(-c4nccs4)cc3)c2O[C@@H]1CN(C)CC1CCCCC1 | -1.7 |
| 15 | Cc1ccc(S(=O)(=O)N(C)C[C@@H]2Oc3ccc(NC(=O)CCCCCC(=O)Nc4ccccc4N)cc3C(=O)N([C@@H](C)CO)C[C@@H]2C)cc1 | -0.5 |
| 16 | Cc1noc(C)c1S(=O)(=O)Nc1cccc2c1O[C@H](CN(C)S(=O)(=O)c1c(C)noc1C)[C@H](C)CN([C@@H](C)CO)C2=O | -0.6 |
| 17 | C[C@@H]1CCCCO[C@@H](CN(C)S(=O)(=O)c2ccc(Cl)cc2)[C@@H](C)CN([C@@H](C)CO)C(=O)c2cc(NC(=O)c3ccncc3)ccc2O1 | -0.3 |
| 18 | C[C@@H]1CN([C@@H](C)CO)C(=O)c2cc(N(C)C)ccc2O[C@H]1CN(C)S(=O)(=O)c1cccs1 | 0.1 |
| 19 | COc1cc2c(cc1OC)CN(C(=O)[C@H]1[C@@H]3C(=O)O[C@@H](c4ccccc4)[C@@H](c4ccccc4)N3[C@@H](c3ccccc3OCCO)[C@]13C(=O)Nc1ccc(C#CCCO)cc13)CC2 | -0.4 |
| 20 | C[C@H](CO)N1C[C@H](C)[C@@H](CN(C)S(=O)(=O)c2cccs2)OCCCC[C@H](C)Oc2ccc(NS(=O)(=O)c3ccc(F)cc3)cc2C1=O | -0.2 |

Quoted at random: six records from the list, in no set order.
| no. | molecule | A1 apoptosis 2 |
| --- | --- | --- |
| 16 | Cc1noc(C)c1S(=O)(=O)Nc1cccc2c1O[C@H](CN(C)S(=O)(=O)c1c(C)noc1C)[C@H](C)CN([C@@H](C)CO)C2=O | -0.6 |
| 12 | CNC[C@@H]1Oc2ccc(NS(=O)(=O)c3c(C)noc3C)cc2CC(=O)N([C@@H](C)CO)C[C@@H]1C | -0.5 |
| 8 | C[C@@H]1CN([C@@H](C)CO)C(=O)c2cc(NC(=O)c3ccncc3)ccc2O[C@@H](C)CCCCO[C@H]1CN(C)C | 1.1 |
| 2 | COc1ccc(CN(C)C[C@H]2Oc3c(NC(=O)C4CCOCC4)cccc3C(=O)N([C@H](C)CO)C[C@@H]2C)cc1 | -1.1 |
| 18 | C[C@@H]1CN([C@@H](C)CO)C(=O)c2cc(N(C)C)ccc2O[C@H]1CN(C)S(=O)(=O)c1cccs1 | 0.1 |
| 3 | C[C@@H]1CN([C@@H](C)CO)C(=O)c2cc(NS(=O)(=O)c3ccccc3)ccc2O[C@@H](C)CCCCO[C@@H]1CN(C)C(=O)Nc1ccccc1 | -1.2 |

(list continues)
| no. | molecule | A1 apoptosis 2 |
| --- | --- | --- |
| 21 | C[C@H](CO)N1C[C@H](C)[C@H](CN(C)S(=O)(=O)c2ccc(Cl)cc2)Oc2ccc(NC(=O)Nc3ccccc3)cc2C1=O | 0.3 |
| 22 | CC(C)NC(=O)Nc1cccc2c1O[C@@H](CN(C)Cc1ccc(C(F)(F)F)cc1)[C@@H](C)CN([C@@H](C)CO)C2=O | -1.2 |
| 23 | C[C@@H]1CN([C@@H](C)CO)C(=O)Cc2cc(NC(=O)Nc3ccc4c(c3)OCO4)ccc2O[C@@H]1CN(C)S(=O)(=O)c1ccc(Cl)cc1 | -0.2 |
| 24 | C[C@@H]1CN([C@@H](C)CO)C(=O)CCCn2nncc2CO[C@@H]1CN(C)C(=O)c1ccncc1 | 0.8 |
| 25 | C[C@H]1CN([C@@H](C)CO)C(=O)c2cc(NC(=O)Nc3ccc4c(c3)OCO4)ccc2O[C@@H]1CN(C)Cc1ccccc1 | 0.8 |
| 26 | CC(C)NC(=O)Nc1ccc2c(c1)C(=O)N([C@H](C)CO)C[C@H](C)[C@@H](CN(C)Cc1ccccc1)OCCCC[C@@H](C)O2 | -0.8 |
| 27 | C[C@H]1CN([C@@H](C)CO)C(=O)c2cc(NC(=O)Nc3ccc(F)cc3)ccc2O[C@@H]1CN(C)CC1CCCCC1 | -0.7 |
| 28 | C[C@@H]1CN([C@H](C)CO)C(=O)Cc2cc(NC(=O)Cn3cnnn3)ccc2O[C@H]1CN(C)S(C)(=O)=O | -0.5 |
| 29 | C[C@@H]1CN([C@@H](C)CO)C(=O)Cc2cc(NC(=O)CCN3CCOCC3)ccc2O[C@H]1CN(C)C(=O)Nc1ccc(F)cc1 | 0.5 |
| 30 | COc1ccc(CN(C)C[C@H]2OCCCC[C@H](C)Oc3ccc(NC(=O)Nc4ccc(C(F)(F)F)cc4)cc3C(=O)N([C@@H](C)CO)C[C@@H]2C)cc1 | 0.3 |
| 31 | C[C@H](CO)N1C[C@H](C)[C@H](CN(C)C(=O)Nc2ccccc2)OCCCC[C@H](C)Oc2ccc(NC(=O)NC3CCCCC3)cc2C1=O | 1.5 |
| 32 | C[C@@H]1CCCCO[C@H](CN(C)C(=O)Nc2ccc(C(F)(F)F)cc2)[C@@H](C)CN([C@@H](C)CO)C(=O)c2cc(NC(=O)c3ccncc3)ccc2O1 | -0.3 |
| 33 | C=CC1c2ccccc2/C=C(C(=O)OC)\C(C(=O)OC)=C/N1Cc1ccc(OC)cc1 (configuration not stated) | -0.1 |
| 34 | C[C@H]1CCCCO[C@H](CN(C)S(=O)(=O)c2cccs2)[C@@H](C)CN([C@@H](C)CO)C(=O)c2cc(NC(=O)NC3CCCCC3)ccc2O1 | -1.8 |
| 35 | C[C@H]1CN([C@@H](C)CO)C(=O)c2cc(NC(=O)Cc3cn(C)c4ccccc34)ccc2O[C@@H]1CN(C)S(=O)(=O)c1ccc(F)cc1 | 1.9 |
| 36 | C[C@H]1CN([C@@H](C)CO)C(=O)Cc2cc(NC(=O)c3ccncc3)ccc2O[C@H]1CN(C)S(=O)(=O)c1ccccc1 | -1.8 |
| 37 | C[C@@H]1CN([C@H](C)CO)C(=O)Cc2cc(NC(=O)NC3CCCCC3)ccc2O[C@H]1CN(C)C(=O)Nc1ccc2c(c1)OCO2 | 0.0 |
| 38 | CC(C)NC(=O)N(C)C[C@@H]1OCCCC[C@@H](C)Oc2ccc(NC(=O)Nc3ccc(C(F)(F)F)cc3)cc2C(=O)N([C@@H](C)CO)C[C@H]1C | 2.4 |
| 39 | Cc1noc(C)c1S(=O)(=O)N(C)C[C@@H]1Oc2c(NC(=O)C3CCOCC3)cccc2C(=O)N([C@H](C)CO)C[C@@H]1C | -1.1 |
| 40 | COc1ccc(CN(C)C[C@@H]2OCCCC[C@@H](C)Oc3ccc(NC(=O)c4ccccc4)cc3C(=O)N([C@@H](C)CO)C[C@@H]2C)cc1 | -1.0 |

2 of these compounds, reformatted.
39. Cc1noc(C)c1S(=O)(=O)N(C)C[C@@H]1Oc2c(NC(=O)C3CCOCC3)cccc2C(=O)N([C@H](C)CO)C[C@@H]1C
  A1 apoptosis 2 = -1.1

23. C[C@@H]1CN([C@@H](C)CO)C(=O)Cc2cc(NC(=O)Nc3ccc4c(c3)OCO4)ccc2O[C@@H]1CN(C)S(=O)(=O)c1ccc(Cl)cc1
  A1 apoptosis 2 = -0.2

The listing continues.
| no. | molecule | A1 apoptosis 2 |
| --- | --- | --- |
| 41 | C[C@@H]1CN([C@@H](C)CO)C(=O)Cc2cc(NS(=O)(=O)c3cccs3)ccc2O[C@@H]1CN(C)C(=O)Nc1ccc2c(c1)OCO2 | -0.9 |
| 42 | C[C@@H]1CN([C@H](C)CO)C(=O)c2cccc(NC(=O)Nc3ccc(F)cc3)c2O[C@H]1CN(C)Cc1ccc(C(=O)O)cc1 | -0.4 |
| 43 | C[C@H]1CCCCO[C@@H](CN(C)S(=O)(=O)c2cccs2)[C@@H](C)CN([C@@H](C)CO)C(=O)c2cc(NC(=O)Nc3ccc(F)cc3)ccc2O1 | 0.5 |
| 44 | C[C@@H]1CN([C@@H](C)CO)C(=O)Cc2cc(NC(=O)CCCCCC(=O)Nc3ccccc3N)ccc2O[C@H]1CN(C)S(=O)(=O)c1ccc(F)cc1 | -0.7 |
| 45 | C[C@@H]1CN([C@H](C)CO)C(=O)c2cccc(NC(=O)C3CCCCC3)c2O[C@H]1CN(C)S(=O)(=O)c1ccccc1 | -0.2 |
| 46 | C[C@H](CO)N1C[C@H](C)[C@@H](CN(C)Cc2ccc(Oc3ccccc3)cc2)Oc2c(NC(=O)Nc3ccc(C(F)(F)F)cc3)cccc2C1=O | -1.5 |
| 47 | C[C@H]1CN([C@@H](C)CO)C(=O)Cc2cc(NS(C)(=O)=O)ccc2O[C@H]1CN(C)Cc1ccc(C(=O)Nc2ccccc2N)cc1 | 0.8 |
| 48 | COc1ccc(-c2cn(CCNC(=O)[C@H](Cc3ccccc3)NS(=O)(=O)c3ccc(C)cc3)nn2)cc1OC | 0.5 |
| 49 | C[C@H](CO)N1C[C@H](C)[C@H](CN(C)C(=O)Nc2cccc3ccccc23)Oc2ccc(NC(=O)Nc3ccc(F)cc3)cc2CC1=O | 0.4 |
| 50 | COc1ccc(CN(C)C[C@H]2OCCCC[C@H](C)Oc3ccc(NC(=O)Nc4ccccc4)cc3C(=O)N([C@H](C)CO)C[C@H]2C)cc1 | 0.5 |
| 51 | C[C@@H]1CCCCO[C@@H](CN(C)S(=O)(=O)c2ccc(Cl)cc2)[C@H](C)CN([C@H](C)CO)C(=O)c2cc(NC(=O)NC3CCCCC3)ccc2O1 | 0.5 |
| 52 | Cc1noc(C)c1S(=O)(=O)N(C)C[C@H]1Oc2ccc(NC(=O)Nc3ccc4c(c3)OCO4)cc2CC(=O)N([C@H](C)CO)C[C@@H]1C | -0.6 |
| 53 | CCCN(C)C[C@H]1OCCCC[C@@H](C)Oc2ccc(NS(=O)(=O)c3ccc(OC)cc3)cc2C(=O)N([C@H](C)CO)C[C@@H]1C | -0.6 |
| 54 | C[C@H]1CN([C@@H](C)CO)C(=O)Cc2cc(NC(=O)CCC(F)(F)F)ccc2O[C@@H]1CN(C)Cc1ccc(Cl)c(Cl)c1 | -2.3 |
| 55 | C[C@@H]1CN([C@@H](C)CO)C(=O)CCCn2cc(nn2)CO[C@@H]1CN(C)C(=O)Nc1cccc2ccccc12 | 0.2 |
| 56 | Cc1noc(C)c1S(=O)(=O)Nc1ccc2c(c1)C(=O)N([C@@H](C)CO)C[C@@H](C)[C@H](CN(C)S(C)(=O)=O)O2 | 0.4 |
| 57 | COc1ccc(S(=O)(=O)Nc2ccc3c(c2)C(=O)N([C@H](C)CO)C[C@@H](C)[C@H](CN(C)CC2CC2)O3)cc1 | 0.3 |
| 58 | COC(=O)CCCCCCC(=O)N/N=C/C=C/c1ccc(O)c(OC)c1 | -0.7 |
| 59 | C[C@H](CO)N1C[C@H](C)[C@H](CN(C)S(=O)(=O)c2cn(C)cn2)Oc2ccc(NC(=O)Nc3cccc4ccccc34)cc2CC1=O | 0.3 |
| 60 | Cc1ccc(S(=O)(=O)N(C)C[C@H]2Oc3ccc(NC(=O)NC(C)C)cc3C(=O)N([C@@H](C)CO)C[C@@H]2C)cc1 | -0.2 |

Assay outcomes as filed in PubChem.
